Pf gametocyte: kills late stage P. falciparum gametocytes; AID 743093; 150,000 tested, 0.065% active; inhibition, % at 10.9 µM; P. falciparum stage V gametocytes, ATP luminescence, 24 h;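 active = inhibition above the mean plus 3 SD of compounds within the control limits, set per campaign, cut at about 38% in these data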;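 also: 0% = DMSO wells and 100% = medium only without gametocytes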
Rab7 wt modul: alters GTP binding to wildtype dog Rab7. GST-Rab7 beads, fluorescent GTP binding, flow cytometry; actives lie on both sides; untreated = 100%, excess cold GTP = 0%. GTP binding activity (percent of control), % at 10 µM. 190,000 tested, 0.055% active. AID 758;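 active = fluorescent GTP binding to Rab7 beads changed by at least 20 points from the 100% baseline, either direction, mostly lower; inconclusive = compound itself probably fluorescent, or too few beads counted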;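 also: median green fluorescence of bound Bodipy-FL-GTP per Rab7 bead population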
HRas wt GTP bind: human HRas wildtype GTP binding, change in either direction. P01112. GST-Ras wt beads, Bodipy-FL-GTP binding, flow cytometry; actives lie on both sides. GTP binding activity, % at 10 µM. 190,000 tested, 0.14% active. AID 759;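 active = GTP binding activity at least 20% away from the 100% baseline, either lowered as inhibitor or raised as activator; inconclusive = flagged as likely green fluorescent, judged across all proteins in the well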;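 also: 0% = unlabeled GTP competition control and 100% = no-compound control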
Target sequence (P01112 whole entry, looked up): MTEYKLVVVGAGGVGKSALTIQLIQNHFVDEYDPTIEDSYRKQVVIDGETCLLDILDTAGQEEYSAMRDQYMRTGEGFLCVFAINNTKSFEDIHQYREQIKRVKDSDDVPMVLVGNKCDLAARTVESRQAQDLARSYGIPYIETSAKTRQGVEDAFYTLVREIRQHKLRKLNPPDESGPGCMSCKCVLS
RGS8-Gao reg: human RGS8-Galphao interaction regulation | response (percent of control binding), % at 10 µM | P09471 | 220,000 tested, 0.34% active | multiplexed bead flow cytometry, RGS8-Galphao binding; actives lie on both sides | AID 1423; in the data active = response below about 60% or above about 140%; inactive = in between;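 also: Galphao activated as the GDP aluminium fluoride complex binding bead-coupled RGS8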
Target sequence (P09471 whole entry, looked up): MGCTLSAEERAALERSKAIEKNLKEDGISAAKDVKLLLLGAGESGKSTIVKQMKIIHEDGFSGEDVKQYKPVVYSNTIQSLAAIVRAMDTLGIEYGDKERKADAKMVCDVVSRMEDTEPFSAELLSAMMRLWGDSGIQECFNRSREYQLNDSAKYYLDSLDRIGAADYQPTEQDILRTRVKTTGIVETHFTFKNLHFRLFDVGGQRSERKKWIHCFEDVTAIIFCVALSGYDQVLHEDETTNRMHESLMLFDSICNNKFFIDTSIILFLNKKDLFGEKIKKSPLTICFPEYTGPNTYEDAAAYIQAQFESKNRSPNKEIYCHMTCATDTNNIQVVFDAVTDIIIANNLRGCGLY
Cdc42 wt GTP: human Cdc42 wildtype GTP binding change, either direction; 190,000 tested, 0.2% active; GST-Cdc42 beads, Bodipy-GTP binding, flow cytometry; actives lie on both sides; percent activity (GTP binding), % at 10 µM; P60953; AID 761;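 active = percent activity GTP binding at least 20 points away from the 100% baseline, either down as inhibitor or up as activator; inconclusive = compound flagged as likely green fluorescent from well-wide comparison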;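 also: median bead fluorescence of bound Bodipy-FL-GTP at 100 nM; 0% = excess unlabeled GTP control and 100% = no compound control; below 100% means less GTP binding so inhibitor and above means activator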
Target sequence (P60953 whole entry, looked up): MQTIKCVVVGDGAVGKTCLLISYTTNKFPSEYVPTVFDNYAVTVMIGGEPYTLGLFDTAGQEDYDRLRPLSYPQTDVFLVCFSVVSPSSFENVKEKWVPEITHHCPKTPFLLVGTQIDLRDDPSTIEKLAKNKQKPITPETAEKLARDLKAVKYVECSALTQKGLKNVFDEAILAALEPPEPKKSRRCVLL
Rab2 wt GTP: changes GTP binding to wildtype dog Rab2A, up or down; GST-Rab2 wt beads, Bodipy-GTP binding, flow cytometry; GTP binding activity, % at 10 µM; 190,000 tested, 0.19% active;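 active = GTP binding activity at least 20 points away from 100%, either lowered or raised; inconclusive = signal likely due to the compound's own green fluorescence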;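 also: 0% = beads with excess unlabeled GTP and 100% = no-compound control corrected for plate trend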
Rac1 act GTP bind: human Rac1 activated mutant GTP binding change; P63000; GST-Rac1 activated beads, fluorescent GTP binding, flow cytometry; actives lie on both sides; 100% means binding = to untreated wells; percent activity (GTP binding), % at 10 µM; 190,000 tested, 0.11% active; AID 764;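 active = GTP binding at least 20 percentage points away from the 100% baseline, in either direction, so actives lie on both sides; inconclusive = Compound likely fluorescent itself, or too few beads counted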
Rac1 wt GTP bind: human Rac1 wildtype GTP binding, inhibitors and activators | P63000 | AID 757 | GTP binding activity (% of control), % at 10 µM | GST-Rac1 beads, fluorescent GTP binding, flow cytometry; actives lie on both sides; 0 = cold GTP competed, 100 = untreated | 190,000 tested, 0.27% active;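 active = GTP binding activity at least 20 points away from the 100% control level, either lower or higher; inconclusive = compound flagged as likely green fluorescent, judged across all proteins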
* marks the source's active call; other numbers are inactive results; u = inconclusive; x = no result given; [ ] = remark or other dose.

Below each compound – Pf gametocyte, Rab7 wt modul, HRas wt GTP bind, RGS8-Gao reg, Cdc42 wt GTP, Rab2 wt GTP, Rac1 act GTP bind, Rac1 wt GTP bind
1) Cc1nc(N2CCN(C(=O)c3ccco3)CC2)c2c3c(sc2n1)CCCC3
 : x, 94, 97, 73, 95, 98, 96, 101
2) COc1ccc(-c2nnc(-c3cccnc3)o2)cc1
 : x, 97, 102, 100, 102, 100, 98, 101
3) CCc1ccc(-n2c(O)cnc2Nc2nc(C)cc(C)n2)cc1
 : x, 96, 98, 104, 97, 97, 98, 98
4) CCn1c(COc2ccc(C)cc2)nnc1SCC(=O)NNC(=O)c1ccc(OC)cc1
 : -20, 97, 99, 103, 101, 100, 101, 104
5) COC(=O)C1=NN(c2ccccc2)C2C(=O)N(c3ccccc3OC)C(=O)C12 (stereo unspecified)
 : x, 102, 102, 101, 97, 101, 98, 104
6) NC1=NC2(CCCC2)n2c(nc3ccccc32)N1
 : 0, 107, 98, 100, 90, 97, 92, 99
7) Cc1ccc(C)c(NC2=C(Cl)C(=O)OC2OC(C)C)c1 (stereo unspecified)
 : 4, 109, 100, 102, 100, 103, 98, 100
8) COc1ccccc1NC(=O)C1=C(C)Nc2nnnn2C1c1cccc(Br)c1 (stereo unspecified)
 : 22, 108, 102, 103, 101, 102, 97, 99
9) N#Cc1cnc(SCC(=O)Nc2ccccc2C(F)(F)F)nc1N
 : x, 94, 97, 100, 99, 96, 99, 99
10) CCc1nc(NCCCCCO)c2nnn(Cc3ccccc3F)c2n1
 : x, 98, 97, 104, 96, 98, 98, 101
11) CCN(CC)S(=O)(=O)c1cc(C(=O)Oc2cccc(-c3cnc4ccccc4n3)c2)ccc1OC
 : 9, 101, 104, 102, 105, 104, 104, 105
12) Cc1ccc(-c2nc(CN(C)C3CCOCC3)c(C)o2)s1
 : 8, 96, 96, 116, 100, 97, 96, 100
13) Cc1sc2nc(CN3CCOCC3)nc(N3CCOCC3)c2c1C
 : x, 99, 100, 143*[activator], 100, 100, 100, 101
14) Cc1ccc2nc3sc(-c4nnc(-c5ccccc5[N+](=O)[O-])o4)c(N)c3cc2c1
 : x, 103, 103, 99, 103, 102, 99, 100
15) CCc1nc(NCCc2ccccn2)c2nnn(Cc3ccccc3F)c2n1
 : x, 101, 103, 99, 103, 103, 100, 104
16) CC1(C)Cc2ccccc2C(/C(C#N)=N/O)=N1
 : x, 107, 99, 98, 102, 96, 95, 102
17) O=C(NCc1ccncc1)C1COc2ccccc2O1 (stereo unspecified)
 : -35, 103, 104, 95, 105, 104, 101, 108
18) CCCCNC(=O)C(=O)N/N=C/c1ccc(OCC(=O)Nc2cccc(OC)c2)c(OC)c1
 : 15, 94, 100, 104, 104, 96, 98, 102
19) CCCCOC(=O)Cn1c2ccc(OC)cc2c2nc3ccccc3nc21
 : -2, 108, 107, 102, 109, 109, 106, 112
20) COC(=O)COc1cccc(NC(=O)COc2ccccc2)c1
 : x, 100, 102, 106, 105, 100, 102, 110
21) Cc1sc2nc(CN3CCCCC3)nc(N3CCN(C(=O)c4ccco4)CC3)c2c1C
 : 31, 99, 98, 100, 99, 100, 92, 100
22) CCCCc1ccc(NC(=O)C(C)CC)cc1 (stereo unspecified)
 : -9, 98, 100, 101, 97, 99, 98, 102
23) CC(=O)C1=C(C)Nc2ncnn2C1c1cccc(OCc2ccccc2)c1 (stereo unspecified)
 : x, 93, 98, 91, 100, 98, 98, 102
24) O=C1C2ON(c3ccccc3)C(c3ccccn3)C2C(=O)N1c1ccc(Br)cc1 (stereo unspecified)
 : x, 97, 96, 101, 97, 96, 96, 98
25) N#C/C(=C\Nc1ccc2cn[nH]c2c1)c1nc(-c2ccccc2)cs1
 : x, 93, 93, 100, 86, 96, 90, 82
26) CCC(=O)Nc1nc2c(OC)ccc(OC)c2s1
 : x, 98, 101, 98, 99, 99, 99, 103
27) C/C(=N\NC(=O)c1ccccc1[N+](=O)[O-])c1c(O)cc(C)oc1=O
 : 19, 98, 101, 100, 101, 100, 102, 106
28) CCOc1ccc(OCC(=O)Nc2ccccc2C(F)(F)F)cc1
 : 7, 95, 93, 101, 98, 95, 93, 99
29) Cc1cc(C(F)F)n2ncc(C(=O)NC3CCCCCC3)c2n1
 : x, 101, 103, 97, 100, 98, 98, 103
30) Cc1cc(NC(=O)C2CCN(S(=O)(=O)c3cccs3)CC2)no1
 : 17, 98, 98, 107, 97, 100, 100, 102
31) COCCCNC(=O)C(=O)N/N=C/c1ccc(OCC(=O)Nc2cccc(Cl)c2C)c(OC)c1
 : x, 102, 105, 104, 109, 104, 105, 112
32) Cc1cccc(C)c1NC(=O)CSc1nnc(-c2ccco2)n1N
 : -9, 95, 98, 104, 103, 97, 100, 102
33) Cc1sc(NC(=O)C2C3C=CC(C3)C2C(=O)O)c(C(N)=O)c1-c1ccc(C(C)C)cc1 (stereo unspecified)
 : 9, 94, 95, 93, 96, 90, 95, 96
34) COc1ccc(OC)c2sc(NC(=O)C(C)C)nc12
 : x, 101, 101, 102, 103, 101, 100, 108
35) Cc1ccc(OCCCC(=O)Nc2ccc(S(N)(=O)=O)cc2)cc1
 : x, 94, 97, 99, 99, 97, 99, 109
36) CCN(Cc1ccccc1)C(=O)c1nn(-c2ccc(OC)cc2)c(=O)c2c1c1ccccc1n2C
 : x, 95, 94, 102, 93, 94, 93, 89
37) COc1nc(N(c2ccccc2)c2ccccc2)nc(-n2ccnc2)n1
 : x, 98, 95, 102, 90, 96, 95, 97
38) COc1ccc(CNc2nc(NCc3ccc(OC)cc3)n(C(=O)c3ccccc3[N+](=O)[O-])n2)cc1
 : -17, 107, 104, 101, 108, 105, 103, 105
39) COC(=O)COc1cccc(NC(=O)c2ccc(Cl)cc2)c1
 : 0, 94, 98, 102, 92, 93, 94, 98
40) CC(=O)NS(=O)(=O)c1cccnc1Nc1ccc(Cl)cc1
 : x, 99, 101, 98, 102, 98, 98, 102
41) COc1ccc(N2C(=O)CN=C2Nc2nc(C)cc(C)n2)cc1OC
 : -28, u, u, 100, u, u, u, u
42) O=C(Nc1c(C(=O)NCc2ccco2)cnn1-c1ccccc1)c1cccc(F)c1
 : x, 99, 97, 100, 98, 96, 95, 101
43) Cc1ccccc1Nc1nc(-c2ccccc2)c(C(=O)Nc2cccnc2)s1
 : x, 99, 98, 98, 101, 97, 98, 100
44) COC(=O)Cc1cc(=O)oc2cc(O)ccc12
 : x, 97, 96, 104, 98, 98, 96, 100
45) CCOC(=O)/C(=N\O)C1=NC(C)(C)Cc2ccccc21
 : -2, 97, 102, 104, 104, 102, 101, 103
46) CCC(=O)Nc1cccc(NC(=O)COc2ccc(OC)cc2)c1
 : x, 101, 97, 106, 101, 100, 96, 103
47) CCOC(=O)c1c(CC(C)C)csc1N
 : -12, 105, 97, 106, 95, 98, 93, 94
48) CCOC(=O)Cc1csc(NC(=O)c2sc3nc4ccc(C)cc4cc3c2N)n1
 : -5, 106, 103, 100, 98, 102, 97, 103
49) c1ccc(-c2nc(CSc3n[nH]c(-c4cccs4)n3)cs2)cc1
 : -8, 96, 98, 103, 96, 96, 94, 95
50) CCCCCSc1nc(O)cc(=O)[nH]1
 : -2, 94, 98, 101, 99, 95, 97, 101

The listing continues.
Below each compound – Pf gametocyte, Rab7 wt modul, HRas wt GTP bind, RGS8-Gao reg, Cdc42 wt GTP, Rab2 wt GTP, Rac1 act GTP bind, Rac1 wt GTP bind
51) Nc1c(C(=O)Nc2ccc(Cl)c(Cl)c2)sc2nc(-c3cccnc3)ccc12
 : 8, 100, 100, 83, 103, 99, 100, 102
52) CC(C)Oc1cccc(C(=O)NC(=S)Nc2ccc3c4c(cccc24)CC3)c1
 : -17, u, u, 101, u, u, u, u
53) COc1ccc(NC(=O)CC2C(=O)N(C)C(=S)N2Cc2ccncc2)cc1 (stereo unspecified)
 : 7, 95, 93, 101, 93, 92, 95, 93
54) Cc1ccc(-c2cc(C(=O)Nc3ccccn3)c3ccccc3n2)o1
 : -17, 95, 94, 98, 91, 93, 96, 96
55) Cc1cccc(C(=O)Nc2ccc(O)cc2)c1
 : x, 100, 103, 99, 101, 100, 97, 100
56) Oc1cccc(/C=N/c2c(-c3ccco3)nc3ccccn23)c1
 : x, 102, 98, 99, 94, 97, 95, 101
57) COC(=O)NC(Nc1sc2c(c1C(N)=O)CCCC2)(C(=O)OC)C(F)(F)F (stereo unspecified)
 : 0, 102, 104, 96, 103, 102, 104, 108
58) CC1CCN(c2ccc(C(F)(F)F)cc2N)CC1
 : 0, 106, 97, 103, 97, 100, 93, 100
59) O=C(N/N=C/c1cn(-c2ccccc2)nc1-c1cc2ccccc2o1)c1ccncc1
 : 6, 96, 99, 84, 99, 99, 99, 99
60) CCCOc1ccc(Cc2c(COCC)[nH]c(=S)[nH]c2=O)cc1
 : -10, 97, 98, 105, 97, 95, 97, 103
61) CCN(CC)CCOCCOc1ccc(Cl)c2ccccc12
 : 0, 104, 97, 106, 102, 101, 97, 104

Grouped by structure: the compounds so far with fluorine (8)
Below each compound – Pf gametocyte, Rab7 wt modul, HRas wt GTP bind, RGS8-Gao reg, Cdc42 wt GTP, Rab2 wt GTP, Rac1 act GTP bind, Rac1 wt GTP bind
9) N#Cc1cnc(SCC(=O)Nc2ccccc2C(F)(F)F)nc1N
 : x, 94, 97, 100, 99, 96, 99, 99
10) CCc1nc(NCCCCCO)c2nnn(Cc3ccccc3F)c2n1
 : x, 98, 97, 104, 96, 98, 98, 101
15) CCc1nc(NCCc2ccccn2)c2nnn(Cc3ccccc3F)c2n1
 : x, 101, 103, 99, 103, 103, 100, 104
28) CCOc1ccc(OCC(=O)Nc2ccccc2C(F)(F)F)cc1
 : 7, 95, 93, 101, 98, 95, 93, 99
29) Cc1cc(C(F)F)n2ncc(C(=O)NC3CCCCCC3)c2n1
 : x, 101, 103, 97, 100, 98, 98, 103
42) O=C(Nc1c(C(=O)NCc2ccco2)cnn1-c1ccccc1)c1cccc(F)c1
 : x, 99, 97, 100, 98, 96, 95, 101
57) COC(=O)NC(Nc1sc2c(c1C(N)=O)CCCC2)(C(=O)OC)C(F)(F)F (stereo unspecified)
 : 0, 102, 104, 96, 103, 102, 104, 108
58) CC1CCN(c2ccc(C(F)(F)F)cc2N)CC1
 : 0, 106, 97, 103, 97, 100, 93, 100

A portion of the library; the hit share may differ from the screen's.
